Screening data as filed in PubChem BioAssay.
Yeast UUG start: modulators of yeast start codon fidelity, primary screen, whole organism, S. cerevisiae, single point, plate reader. S. cerevisiae UUG-firefly luciferase reporter, luminescence/redox ratio. activity score, % at 18.7 µM. hit rate 0.13% among 350,000;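 active = replicate mean at a twofold rise or more, about +100% in these data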;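 also: firefly luciferase made from a UUG start codon reports start codon fidelity; reporter light over untreated wells divided by growth signal over untreated wells; some hits fall short of that in this replicate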
Env fusion inh: inhibitors of HIV-1 Env-driven cell-cell fusion, primary screen, HeLa-JRFL effector, CEM21 target cells, luciferase; inhibition, % at 12.3 µM; AID 651610, 2012; hit rate 1.1% among 360,000;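 active = mean replicate inhibition score of at least 50 and every replicate individually at or above 50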;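 also: 0% = plate neutral controls and 100% = maraviroc near 300 nM; one replicate is shown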
* = called active by the depositor; [ ] = remark or other dose. An excerpt; the hit share may differ from the screen's.

Env fusion inh	Yeast UUG start	SMILES
41[16.7 µM]	-12	C[C@@H]1CN([C@@H](C)CO)C(=O)c2cc(NC(=O)Nc3ccc(C(F)(F)F)cc3)ccc2O[C@@H](C)CCCCO[C@H]1CN(C)S(=O)(=O)c1ccc(F)cc1
-86[16.7 µM]	-13	Cc1ccc(S(=O)(=O)Nc2ccc3c(c2)C(=O)N([C@@H](C)CO)C[C@H](C)[C@@H](CN(C)S(=O)(=O)c2ccc(C)cc2)OCCCC[C@@H](C)O3)cc1
14[16.7 µM]	-5	CC(C)NC(=O)NCC[C@@H]1CC[C@@H](NC(=O)Nc2ccccc2)[C@H](CO)O1
6[16.7 µM]	3	C[C@H]1CN([C@@H](C)CO)C(=O)c2cc(C#Cc3ccccn3)cnc2O[C@@H]1CN(C)Cc1cncnc1
-13[16.7 µM]	5	COCC#Cc1cnc2c(c1)C(=O)N([C@@H](C)CO)C[C@@H](C)[C@H](CN(C)C(=O)Nc1ccc(OC)cc1)O2
-11[16.7 µM]	-16	O=C(C[C@@H]1CC[C@@H](NC(=O)Nc2ccc3c(c2)OCO3)[C@H](CO)O1)NCc1ccc(F)cc1
0[16.7 µM]	4	Cc1ccc(S(=O)(=O)Nc2ccc3c(c2)CC(=O)N([C@H](C)CO)C[C@@H](C)[C@@H](CN(C)C(=O)Nc2c(C)noc2C)O3)cc1
-8[16.7 µM]	-8	C[C@@H]1CCCCO[C@H](CN(C)S(=O)(=O)c2cccs2)[C@@H](C)CN([C@@H](C)CO)C(=O)c2cc(NC(=O)Nc3ccccc3)ccc2O1
-13[16.7 µM]	5	COc1ccc(S(=O)(=O)N(C)C[C@@H]2Oc3ncc(-c4ccncc4)cc3C(=O)N([C@@H](C)CO)C[C@@H]2C)cc1
22[16.7 µM]	3	O=C(C[C@H]1C=C[C@H](NC(=O)NC2CCCCC2)[C@@H](CO)O1)NCc1ccc(Cl)cc1
-22[16.7 µM]	-5	COCCNC(=O)C[C@@H]1CC[C@H]2[C@H](COc3ccc(NC(=O)Nc4ccccc4)cc3C(=O)N2C)O1
7[16.7 µM]	1	O=C(Nc1cc(F)ccc1F)N[C@@H]1CC[C@H](CCNC(=O)c2cnccn2)O[C@@H]1CO
-4[16.7 µM]	12	C[C@H]1CN([C@@H](C)CO)C(=O)c2cc(C#CC3CC3)cnc2O[C@@H]1CN(C)S(=O)(=O)c1cccc(F)c1
-13[16.7 µM]	5	C[C@@H]1CCCCO[C@@H](CN(C)C(=O)C2CCCCC2)[C@@H](C)CN([C@@H](C)CO)C(=O)c2cc(NS(=O)(=O)c3cn(C)cn3)ccc2O1
70*[16.7 µM]	4	CN(C)C(=O)C[C@@H]1C[C@@H]2c3cc(NS(=O)(=O)c4ccc(F)cc4)ccc3O[C@@H]2[C@@H](CO)O1
-39[16.7 µM]	28	CO[C@@H]1CN(C)C(=O)c2cc(NS(=O)(=O)c3cccc(C)c3)ccc2OC[C@@H](C)NC[C@H]1C
2[16.7 µM]	16	CCC(=O)N1C[C@@H](C)[C@H](OC)CN(C)C(=O)c2ccc(NC(=O)NC(C)C)cc2OC[C@@H]1C
28[16.7 µM]	-1	C[C@H](CO)N1C[C@H](C)[C@@H](CN(C)C(=O)Nc2cccc3ccccc23)Oc2ccc(NC(=O)Cc3ccccc3)cc2CC1=O
4[16.7 µM]	-8	CN1C(=O)c2cc(NC(=O)C3CCOCC3)ccc2OC[C@@H]2O[C@@H](CC(=O)NCC3CC3)CC[C@H]21
-11[16.7 µM]	-3	COCC(=O)N(C)C[C@H]1Oc2cc(C#CCC(C)C)ccc2S(=O)(=O)N([C@H](C)CO)C[C@H]1C
1[16.7 µM]	-7	N#C[C@H]1[C@@H](c2ccc(-c3ccccc3F)cc2)[C@H](CO)N1C(=O)Cc1ccccc1
57*[16.7 µM]	11	N#C[C@@H]1[C@H](c2ccc(-c3ccccc3F)cc2)[C@@H](CO)N1C(=O)c1ccccn1
-8[16.7 µM]	-10	Cc1noc(C)c1NC(=O)N(C)C[C@@H]1OCCCC[C@H](C)Oc2ccc(NC(=O)NC3CCCCC3)cc2C(=O)N([C@H](C)CO)C[C@@H]1C
-15[16.7 µM]	11	COC(=O)C[C@@H]1CC[C@@H]2[C@@H](COc3ccc(NS(=O)(=O)c4cccc(F)c4)cc3C(=O)N2C)O1
-21[16.7 µM]	-3	C[C@H](CO)N1C[C@H](C)[C@@H](CN(C)C(=O)NC2CCCCC2)Oc2ccc(NC(=O)Cn3cnnn3)cc2CC1=O
25[16.7 µM]	29	C[C@H](CO)N1C[C@H](C)[C@H](CN(C)C(=O)Nc2ccccc2)Oc2ccc(NC(=O)NC3CCCCC3)cc2C1=O
2[16.7 µM]	7	Cc1noc(C)c1NC(=O)N(C)C[C@H]1Oc2ncc(C#CCC(C)C)cc2C(=O)N([C@@H](C)CO)C[C@@H]1C
8[16.7 µM]	-7	O=C(N[C@@H]1CC[C@H](CCNS(=O)(=O)c2ccc(Cl)cc2)O[C@H]1CO)c1cccnc1
-52[16.7 µM]	-2	O=C(CCN1CCCCC1)N[C@@H]1CC[C@H](CCn2cc(-c3ccc(F)cc3)nn2)O[C@@H]1CO
5[16.7 µM]	-14	O=C(C[C@H]1CC[C@@H]2[C@H](COC[C@H](O)CN2CCc2ccccc2)O1)NCc1ccccc1
-3[16.7 µM]	24	C[C@H](CO)N1C[C@H](C)[C@@H](CN(C)C(=O)Nc2ccc3c(c2)OCO3)OCCCC[C@H](C)Oc2ccc(NC(=O)c3ccccc3)cc2C1=O
-9[16.7 µM]	-10	C[C@@H]1CN([C@@H](C)CO)C(=O)c2cc(-c3ccc(F)cc3)cnc2O[C@H]1CN(C)Cc1ccc(C(=O)O)cc1
-1[16.7 µM]	5	C[C@H]1CN([C@@H](C)CO)C(=O)Cc2cc(NC(=O)CCC(F)(F)F)ccc2O[C@@H]1CN(C)C(=O)Nc1ccc(C(F)(F)F)cc1
-14[16.7 µM]	-8	N#C[C@@H]1N[C@@H](CO)[C@@H]1c1ccc(C#Cc2ccc(F)cc2)cc1
8[16.7 µM]	-11	CNC[C@@H]1Oc2c(NC(=O)Nc3c(C)noc3C)cccc2C(=O)N([C@@H](C)CO)C[C@H]1C
2[16.7 µM]	37	C[C@@H]1CN([C@@H](C)CO)S(=O)(=O)c2ccc(-c3cccc(F)c3)cc2O[C@@H]1CN(C)CC1CC1
-1[16.7 µM]	1	C[C@@H]1CN([C@@H](C)CO)C(=O)c2cc(NS(=O)(=O)c3ccccc3)ccc2O[C@@H]1CN(C)S(=O)(=O)c1cn(C)cn1
-35[16.7 µM]	6	C[C@@H]1CN([C@H](C)CO)C(=O)c2cc(C#C[C@@H](C)O)cnc2O[C@@H]1CN(C)Cc1cncnc1
-5[16.7 µM]	-6	COc1ccccc1-c1cn(CC[C@H]2CC[C@H](NC(=O)C3CCC3)[C@H](CO)O2)nn1
31[16.7 µM]	14	O=C(NCC[C@@H]1CC[C@@H](NS(=O)(=O)c2ccc(F)cc2)[C@@H](CO)O1)Nc1ccc(Cl)cc1
10[16.7 µM]	-2	COc1ccc(CNC(=O)C[C@H]2CC[C@@H](NC(=O)CN(C)C)[C@H](CO)O2)cc1
21[16.7 µM]	2	C[C@@H]1CN([C@H](C)CO)C(=O)c2cc(NC(=O)Cc3cn(C)c4ccccc34)ccc2O[C@H]1CN(C)Cc1ccccc1
25[16.7 µM]	-13	C[C@H](CO)N1C[C@H](C)[C@@H](CN(C)Cc2ccccc2)Oc2cc(Br)ccc2S1(=O)=O
2[16.7 µM]	1	O=C(C[C@H]1CC[C@@H](NS(=O)(=O)c2ccccc2)[C@H](CO)O1)NCc1ccccc1F
-9[16.7 µM]	4	C[C@@H]1CN([C@@H](C)CO)C(=O)Cc2cc(N(C)C)ccc2O[C@H]1CN(C)S(=O)(=O)c1cn(C)cn1
-10[16.7 µM]	18	Cc1noc(C)c1NC(=O)N(C)C[C@H]1Oc2ccc(NS(=O)(=O)c3ccccc3)cc2CC(=O)N([C@H](C)CO)C[C@@H]1C
0[16.7 µM]	8	COc1ccc(S(=O)(=O)Nc2cccc3c2O[C@H](CN(C)Cc2ccc4c(c2)OCO4)[C@H](C)CN([C@H](C)CO)C3=O)cc1
16[16.7 µM]	6	O=C(NCC[C@H]1CC[C@@H](NS(=O)(=O)c2ccccc2)[C@@H](CO)O1)c1cc(Cl)cc(Cl)c1
5[16.7 µM]	25	Cc1noc(C)c1S(=O)(=O)N(C)C[C@@H]1Oc2ccc(NC(=O)NC3CCCCC3)cc2CC(=O)N([C@@H](C)CO)C[C@H]1C
-5[16.7 µM]	6	C[C@@H]1CN([C@@H](C)CO)C(=O)CCCn2cc(nn2)CO[C@H]1CN(C)C(=O)Nc1ccc(F)cc1

Next part.
Env fusion inh	Yeast UUG start	SMILES
12[16.7 µM]	-6	COc1ccc(S(=O)(=O)N[C@@H]2CC[C@@H](CCn3cc(-c4cccc(F)c4)nn3)O[C@@H]2CO)cc1
-16[16.7 µM]	-7	C[C@@H]1CN([C@H](C)CO)C(=O)c2cc(NS(=O)(=O)c3cccs3)ccc2O[C@H]1CN(C)C(=O)Nc1ccccc1
-20[16.7 µM]	-3	C[C@@H]1CN([C@H](C)CO)C(=O)c2cc(-c3cccc(C#N)c3)cnc2O[C@@H]1CN(C)C
1[16.7 µM]	-3	C[C@@H]1CN([C@H](C)CO)C(=O)c2cc(NC(=O)C3CCCCC3)ccc2O[C@@H](C)CCCCO[C@H]1CN(C)S(=O)(=O)c1ccc(F)cc1
-31[16.7 µM]	1	COCC#Cc1ccc2c(c1)O[C@H](CN(C)S(C)(=O)=O)[C@H](C)CN([C@H](C)CO)S2(=O)=O
-11[16.7 µM]	23	CCCN1C[C@@H](C)[C@H](OC)CN(C)C(=O)c2cc(NC(=O)c3ccccc3F)ccc2OC[C@H]1C
8[16.7 µM]	-9	Cc1ccc(S(=O)(=O)N(C)C[C@@H]2OCCCC[C@H](C)Oc3ccc(NS(=O)(=O)c4ccc(F)cc4)cc3C(=O)N([C@H](C)CO)C[C@H]2C)cc1
4[16.7 µM]	-2	CO[C@H]1CN(C)C(=O)c2ccc(NC(=O)c3cc(C)on3)cc2OC[C@H](C)N(C(C)=O)C[C@H]1C
2[16.7 µM]	3	Cc1noc(C)c1S(=O)(=O)Nc1ccc2c(c1)C(=O)N([C@@H](C)CO)C[C@H](C)[C@H](CN(C)C(=O)Nc1ccccc1)O2
-6[16.7 µM]	2	C[C@H](CO)N1C[C@H](C)[C@@H](CN(C)C(=O)c2cnccn2)Oc2cc(C3=CCCC3)ccc2S1(=O)=O
-15	3	COc1ccc(OCCCC(=O)OCC(=O)N2CCN(S(=O)(=O)c3ccc(C)cc3C)CC2)cc1
-3[16.7 µM]	-2	C[C@H]1CN([C@@H](C)CO)S(=O)(=O)c2ccc(C#Cc3ccccc3)cc2O[C@@H]1CN(C)S(C)(=O)=O
9[16.7 µM]	-9	O=C(C[C@@H]1CC[C@H]2[C@@H](COC[C@@H](O)CN2C(=O)C2CC2)O1)NCc1ccccc1Cl
27[16.7 µM]	4	C[C@@H]1CN([C@@H](C)CO)C(=O)c2cc(NS(=O)(=O)c3ccc(F)cc3)ccc2O[C@@H](C)CCCCO[C@@H]1CN(C)C(=O)c1ccccc1
-4[16.7 µM]	1	COCC#Cc1ccc2c(c1)O[C@H](CN(C)C(=O)CC1CC1)[C@@H](C)CN([C@@H](C)CO)S2(=O)=O
2[16.7 µM]	19	COc1ccc(S(=O)(=O)Nc2ccc3c(c2)C(=O)N([C@@H](C)CO)C[C@@H](C)[C@@H](CN(C)C(=O)C2CCCCC2)OCCCC[C@H](C)O3)cc1
-1[16.7 µM]	-14	CCC(=O)Nc1ccc2c(c1)C(=O)N(C)C[C@@H](OC)[C@H](C)CN(CCc1ccccc1)[C@H](C)CO2
